From PubChem BioAssay
ugtP null kill = growth inhibition of ugtP-null S. aureus, primary screen, RN4220 ugtP deletion, OD600 | 16 h; some inactives read as strong as hits | growth inhibition, % (concentration not given with the values) | 0.54% of 330,000 active;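 active means z-score under -3 and OD600 up to 0.15 on both plates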;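 further: plate controls were untreated wells for no effect and antibiotic for full effect; wells of about 80 µL received 100 nL stock; the first replicate is given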
BJeLR lethal = MLPCN primary cell-based screen for lethality selective to Ras in HRASV12 cells | BJeLR (HRASV12) viability, CellTiter-Glo ATP luminescence, 48 h; reference of the scale not given here | inhibition, % (no concentration beside the values) | 0.17% of 300,000 active | AID 1554, 2009;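 active means replicate mean above 50%; inconclusive means above 50% but judged a plate artefact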;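 further: 50 nL library stock added to about 25 µL; numbers are from one replicate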
RN4220 kill = growth inhibition of S. aureus RN4220, primary screen, OD600 | 16 h | inhibition, % (no concentration beside the values) | 0.33% of 330,000 active;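 active means z-score of -3 or lower and OD600 up to 0.18 on both plates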;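 further: plate controls were untreated cells for no effect and reference antibiotic for full effect; stock transfer was 100 nL into about 80 µL; one replicate is shown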
Mtb hypoxia inh = PubChem AID 1159583 | 0.1% of 300,000 active | M. tuberculosis hypoxia-regulated fluorescent reporter, fluorescence | fluorescence inhibition, % (test concentration not listed);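 active means 35 to 45% if threefold the growth effect, above 45% if 1.5-fold the growth effect; inactive means the rest, general growth blockers included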;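 further: wells of about 50 µL received 100 nL stock; 0% = vehicle wells and 100% = reference inhibitor wells; whole bacteria with a GFP reporter of the hypoxia response; strong numbers were not always called active; many hits fall short of the cut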
Autofluor counter = counter-screen for toxin protease inhibitors: compound fluorescence. compound autofluorescence counterscreen, microsphere flow cytometry; hits give high values. 3.1% of 360,000 active. fluorescence intensity (concentration not given with the values);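 active means at least 3 SD above the mean of all compounds, about 16000 in these data; inconclusive means too few beads counted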;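 further: 100 nL of 1 mM stock went into each well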
PrP UTR inh = inhibition of PrP 5' UTR reporter expression | cell-based PrP 5' UTR mRNA reporter, plate reader | inhibition, % (test concentration not listed) | 0.35% of 340,000 active;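 active means every replicate at 50% or more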;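 further: 0 = median of the neutral control wells; tested in H4 reporter cells; numbers are from one replicate; inactives centre near -14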
Mtb hypoxia inh growth = further read-out of Mtb hypoxia inh, marked with its call; growth inhibition, %; measured here: M. tuberculosis growth (absorbance);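 0% = vehicle and 100% = reference antibiotic; read after six days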
The depositor's hits bear a star; ? = inconclusive; . = no result given.

mol,ugtP null kill,BJeLR lethal,Mtb hypoxia inh growth,RN4220 kill,PrP UTR inh,Mtb hypoxia inh,Autofluor counter
O=C(N/C(=C\c1ccc(Br)cc1)c1nc2ccccc2[nH]1)c1ccco1,2,0,-1,2.6,-38,2,3344
O=C(C(Cc1ccccc1)n1cccc1)N1CCc2ccccc21 (stereo not given),-5,-1,1,-6.8,-22,2,5958
Cc1nonc1C1CCCN1C(=O)c1cc(COc2cccc(C(F)(F)F)c2)on1 (stereo not given),-11,-1,-3,-1.7,-13,-5,6318
O=C(COC(=O)c1ccc[nH]c1=O)Nc1cc(S(=O)(=O)N2CCCCC2)ccc1Cl,1,-1,12,12,-16,4,4203
COc1ccc(NC(=O)CSc2ncn[nH]2)c([N+](=O)[O-])c1,3,1,8,2.5,-29,12,9659
COCCNC(=O)c1ccc2c(c1)S(=O)(=O)c1cc(Cl)ccc1C2=O,6,.,11,15,-13,3,3170
COc1ccccc1CN1C[C@@H]2C[C@@H](c3cccc(O)c3)N3CCC[C@@]23C1=O,3,6,2,1.3,-26,-17,7535
CC(=O)Nc1cc(NC(C)=O)cc(C(=O)NC(C)(C)C)c1,1,-12,5,-2.3,-21,6,3301
Cc1nc(C(=O)NNC(=O)Nc2ccccc2)cs1,15,-11,9,5.5,-14,20,3789
NC(=O)c1c(NC(=O)c2c(F)cccc2F)sc2c1CCN(Cc1ccccc1)C2,1,0,11,-11,-1,1,6169
Cc1ccc(NC(=O)c2cc(=O)[nH]c3ccccc23)cc1,2,1,-3,0.6,-23,-3,3064
Cc1ccc(C(=O)N/C(=C\c2cccs2)C(=O)NCCc2c[nH]c3ccccc23)cc1C,3,1,-5,-1.0,-2,7,16774*
O=C(COc1ccc(S(=O)(=O)N2CCCC2)cc1)NCC1CCCO1 (stereo not given),2,3,4,2.9,-24,5,3061
O=C(Cc1cccc2ccccc12)Nc1ccc(N2CCOCC2)cc1,14,9,5,2.4,-48,5,3946
C/C(CCC12CC3CC(CC(C3)C1)C2)=N\NC(N)=S,.,-10,.,.,-22,.,5293
CC(C)(C)c1cc(C(=O)NCc2cccnc2)ccn1,7,2,3,4.0,2,3,16087

Entries of single compounds, looked up by structure:
`O=C(COc1ccc(S(=O)(=O)N2CCCC2)cc1)NCC1CCCO1` (stereo not given) across the screens: ugtP null kill = 2; BJeLR lethal = 3; Mtb hypoxia inh growth = 4; RN4220 kill = 2.9; PrP UTR inh = -24; Mtb hypoxia inh = 5; Autofluor counter = 3061
`O=C(Cc1cccc2ccccc12)Nc1ccc(N2CCOCC2)cc1` across the screens: ugtP null kill = 14; BJeLR lethal = 9; Mtb hypoxia inh growth = 5; RN4220 kill = 2.4; PrP UTR inh = -48; Mtb hypoxia inh = 5; Autofluor counter = 3946

(next part)
mol,ugtP null kill,BJeLR lethal,Mtb hypoxia inh growth,RN4220 kill,PrP UTR inh,Mtb hypoxia inh,Autofluor counter
O=C(Nc1cccc(F)c1)c1ccc(S(=O)(=O)N2CCOCC2)cc1,13,4,-1,2.8,-19,2,4219
COc1ccc(NC2CCCN(C(=O)CCc3cccc(Cl)c3)C2)cc1 (stereo not given),-1,7,-1,4.3,-17,0,5643
COc1ccccc1NC(=S)N1CCC(NC(=O)NC23CC4CC(CC(C4)C2)C3)CC1,2,-3,9,5.6,-4,6,8977
Cc1ccc(NC(=O)Nc2ccnc(-c3cccnc3)n2)cc1,1,-12,1,2.2,-42,2,3987
CCOC(=O)c1cccc(C(=O)Oc2ccccc2)n1,-7,-7,2,5.3,-15,4,5780
CCc1cc(-c2n[nH]c(C)c2-c2nc3ccccc3n2C)c(O)cc1O,-4,-6,0,-0.7,-23,-4,5401
COc1ccc(C2/C=C\CN3CCC[C@H]3C(=O)N2Cc2ccc(F)cc2)cc1 (stereo not given in full),-1,.,5,4.6,-43,4,5521
CC(=O)c1cc2c(cc1N/C(=N/S(=O)(=O)c1ccccc1)c1ccc(Cl)cc1)OCO2,.,-7,.,.,-17,.,1990
CC1CC(C)CN(C(=O)c2ccc3ccccc3c2)C1 (stereo not given),-5,9,-1,0.7,-20,5,?
COc1cccc(/C=C/C(=O)OCC(=O)Nc2nnc(-c3ccccc3)o2)c1OC,1,.,-1,3.2,-20,4,.
CCCCCCSc1cc(C)nc2ncnn12,2,6,9,-2.0,-21,5,5875
CCCCCCCCCCCCN1C(CC(=O)O)c2cc(C(F)(F)F)ccc2S1(=O)=O (stereo not given),39,.,15,2.4,.,12,.
CCCCn1c(N)c(N(Cc2ccccc2OC)C(=O)c2cc(=O)[nH]c3ccccc23)c(=O)[nH]c1=O,7,-8,0,2.0,-20,5,?
CCc1cc(C(=O)NC2CCCN(Cc3ccccc3F)C2)n(C)n1 (stereo not given),2,6,4,1.9,-14,12,5389
Cc1ccc(S(=O)(=O)N2CCOCC2)cc1C(=O)NNC(=O)c1ccoc1C,4,0,-4,1.5,1,1,4867
Cc1ccc([N+](=O)[O-])c(OCCCNCC(C)O)c1 (stereo not given),2,2,8,2.5,-61,12,4318

A few values from the results shown:
CCc1cc(C(=O)NC2CCCN(Cc3ccccc3F)C2)n(C)n1 (stereo not given) in Mtb hypoxia inh growth: 4
CCCCCCCCCCCCN1C(CC(=O)O)c2cc(C(F)(F)F)ccc2S1(=O)=O (stereo not given) in Mtb hypoxia inh: 12
COc1cccc(/C=C/C(=O)OCC(=O)Nc2nnc(-c3ccccc3)o2)c1OC in RN4220 kill: 3.2
CCCCn1c(N)c(N(Cc2ccccc2OC)C(=O)c2cc(=O)[nH]c3ccccc23)c(=O)[nH]c1=O in PrP UTR inh: -20

New compounds follow.
mol,ugtP null kill,BJeLR lethal,Mtb hypoxia inh growth,RN4220 kill,PrP UTR inh,Mtb hypoxia inh,Autofluor counter
CC1CCCCN1C(=S)NC(=O)c1cc(Br)ccc1Cl (stereo not given),6,.,4,6.9,-22,4,3616
COc1ccccc1OCc1ccc(C(=O)NCC2CCCO2)cc1 (stereo not given),0,.,-3,5.5,-13,-3,8569
CN(C)CCN(C(=O)c1cccc(Cl)c1)c1nc2c(Cl)cccc2s1,7,16,9,3.5,-7,10,9139
COC(=O)C(O)(CC(=O)Nc1ccccc1OC)C(F)(F)F (stereo not given),-4,-15,9,0.5,-19,4,4044
COc1cccc(OCCOCCOc2ccc(C)cc2[N+](=O)[O-])c1,0,-6,3,4.2,-16,12,2111
CN(C(=O)c1cccs1)c1ccc(OCC(=O)N2CCC(C(N)=O)CC2)cc1,2,22,-10,1.5,-13,12,4587
CCCc1cc(=O)[nH]c(Nc2ccc(Cl)cc2)n1,-17,8,0,9.3,0,4,4772
COc1ccc(S(=O)(=O)N2CCN(Cc3cc(OC)c(OC)cc3OC)CC2)cc1,6,0,9,4.2,-25,-9,4055
CC12CN(NC(=O)c3ccc(Cl)cc3)C3(C#N)CC1CCC23C (stereo not given),3,3,5,5.1,-11,2,4299
COc1ccccc1N1CCN(C(=O)/C=C/c2ccco2)CC1,5,-5,9,0.1,-57,3,2220
Cc1noc(C)c1CSCC(=O)Nc1nnc(CC(C)C)s1,4,-1,-1,-0.7,-25,5,5316
COc1ccc(/C(N)=N/OC(=O)CCCc2ccccc2)cc1OC,3,4,2,3.2,4,-1,2120
Cc1ccc(N(C(=O)Cn2nnc(-c3ccc(F)cc3)n2)C(C(=O)NC(C)(C)C)c2ccncc2)cc1 (stereo not given),3,-5,2,0.4,-9,-6,1975
COc1cc2c(cc1OC)-c1nncn1C(C)(C)C2,4,6,4,2.9,-9,7,4479
Cc1ccc(C(=O)NC2CC3CCCC(C2)N3Cc2ccccc2)cc1 (stereo not given),11,0,6,3.2,-36,9,4244
Cc1cccc(OCC(=O)NCC(=O)n2nc(C)cc2C)c1,7,-2,2,1.3,2,5,3120
CCC(=O)c1ccc(O)c(OC)c1,-23,-1,.,0.7,-16,.,5537
COc1ccc(NC(=O)[C@@H](NC(=O)c2ccccc2F)C(C)C)cc1S(=O)(=O)N1CCOCC1,-2,0,-3,-2.5,-12,-8,4208
CC(=O)C1=C(O)C(=O)N(c2cccc(C(=O)O)c2)C1c1ccccc1F (stereo not given),-2,.,3,-3.0,-14,3,10306
O=c1nccc(SCc2ccc(Cl)cc2Cl)[nH]1,5,3,-4,4.0,-25,3,3453
O=C1Nc2ccccc2/C1=C\c1cccn1-c1ccc(OC(F)(F)F)cc1,10,-2,6,-12,-3,3,24253*
CC(=O)Nc1ccc(S(=O)(=O)Nc2nccs2)cc1,3,-2,22,2.4,-20,18,3767
COc1ccc(OCC(=O)Nc2ccc(NC(=O)c3cccs3)cc2)cc1,7,-2,1,3.1,-12,5,3795
Cc1ccc(C(=O)NCCCN2CCOCC2)o1,-1,-2,8,4.3,-24,14,10450
Cc1nccn1S(=O)(=O)c1cc([N+](=O)[O-])ccc1Cl,4,-5,2,7.4,8,11,2159
C[C@@H]1C(=O)O[C@@H]2CC34[C@H]5C[C@@H](C(C)(C)C)C36[C@H](OC(=O)[C@@H]6O)OC4(C(=O)O5)[C@@]12O (stereo not given in full),.,-6,.,.,-7,.,3942
CCOC(=O)C1C2C=CC3(CN(Cc4ccco4)C(=O)C13)O2 (stereo not given),3,-13,.,0.9,-11,.,3457
Cc1ccc(C(=O)N/C(=C/c2ccc(N(C)C)cc2)C(=O)NCC2CCCO2)cc1 (stereo not given),6,-12,-7,5.1,-12,-3,4651
CC(=O)c1c(C)[nH]c(C(=O)Nc2c(C)n(C)n(-c3ccccc3)c2=O)c1C,-2,0,3,1.9,-4,-11,4178
CCn1c(SCC(=O)N(C)C2CCCCC2)nc2cc(S(N)(=O)=O)ccc21,11,.,7,3.7,-34,5,7737
Cc1cc(C(=O)NN=Cc2cc([N+](=O)[O-])ccc2O)c2ccccc2n1,66,.,-5,84,.,-5,.
CS(=O)(=O)N(Cc1ccc(C(=O)Nc2ccccc2Sc2ccccc2)cc1)c1ccccc1,18,1,5,-7.6,-6,14,2435
Cc1nnc(NCCO)c2ccccc12,-4,-4,16,-2.9,-33,-3,10208
O=S(=O)(c1cccc(-c2csc(-c3cccnc3)n2)c1)N1CCCCC1,-2,-4,5,7.8,.,6,9924
Brc1ccc(CSc2nnc3ccccn23)cc1,0,-4,-3,0.2,-36,14,4935
O=C(CCS(=O)(=O)c1ccccc1)OCC(=O)N1CCN(S(=O)(=O)c2ccc(Cl)cc2)CC1,4,1,-1,0.5,-12,-1,5461
CCOc1ccc2cc(S(=O)(=O)N3CCOCC3)ccc2c1,4,0,.,1.2,-18,.,4268
CCn1nnc(-c2ccccc2NC(=O)c2cc(OC)c(OC)c(OC)c2)n1,8,1,-7,8.5,-11,0,6866
COc1ccc(OC)c(C2C(C(C)=O)=C(O)C(=O)N2c2ccc(F)cc2)c1 (stereo not given),11,-9,12,5.8,-10,4,3097
COc1ccc(-c2nn(C)c(=O)c3ccccc23)cc1CNC(=O)C1CCCCC1,5,1,3,4.1,-7,-1,4658
CC(C)(O[C@@H]1O[C@H](CO)[C@@H](O)[C@H](O)[C@H]1O)[C@@H]1CC=C(C(=O)O)CC1,-6,.,5,-13,-11,13,3923
O=C(COC(=O)c1cnccn1)c1ccc(Br)cc1,1,-6,9,5.5,-20,-1,3712
CNC(=S)NN=C(C)c1ccc2c(c1)OCO2,2,.,11,2.8,.,10,.
Cc1ccc(S(=O)(=O)NC2=NCN(CC(=O)O)CN2)cc1,5,5,3,4.9,-32,4,5167
CSc1cc(CS(=O)(=O)c2ccccc2)nc(-c2ccccc2)n1,9,10,-5,1.7,-19,7,4831
COC(=O)Cc1c(C)c2ccc(O)c(CNCc3ccc(OC)c(OC)c3)c2oc1=O,9,1,7,-3.1,-14,-6,4135
O=C(Nc1cccc(C(F)(F)F)c1)C1=CC=CN2CCS(=O)(=O)N=C12,-6,.,9,0.3,-5,2,5750
COCCNC(=O)CSc1nc2cc(OC)c(OC)cc2c(=O)n1CCc1ccc(S(N)(=O)=O)cc1,8,0,-2,1.5,-21,4,4396
COC(=O)C1=C(C(=O)c2ccccc2)C(c2cccs2)n2nnnc2N1 (stereo not given),1,-3,15,7.7,-75,13,3234
O=C(Nc1ccc2c(c1)OCCO2)c1ccc(Cl)c(S(=O)(=O)N2CCOCC2)c1,-4,7,6,-1.8,-10,-9,10735
